# Screens (PubChem BioAssay)
# HNF4A DNA FP: change in binding of human HNF4 alpha to DNA; activity change, % at 10 µM; actives 0.3% (n = 360,000); HNF4a-FITC DNA binding, fluorescence polarization, 1 h; AID 1224865; in the data active = activity change above about 30%, passing the limit was not always enough;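 note: controls were the assay level and a saturating level of protein; the project sought stronger binding though the title names inhibitors; some compounds called inactive have numbers as strong as hits; positive values seem to mean higher polarization but the record does not say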
# Target sequence (P41235 whole entry, looked up): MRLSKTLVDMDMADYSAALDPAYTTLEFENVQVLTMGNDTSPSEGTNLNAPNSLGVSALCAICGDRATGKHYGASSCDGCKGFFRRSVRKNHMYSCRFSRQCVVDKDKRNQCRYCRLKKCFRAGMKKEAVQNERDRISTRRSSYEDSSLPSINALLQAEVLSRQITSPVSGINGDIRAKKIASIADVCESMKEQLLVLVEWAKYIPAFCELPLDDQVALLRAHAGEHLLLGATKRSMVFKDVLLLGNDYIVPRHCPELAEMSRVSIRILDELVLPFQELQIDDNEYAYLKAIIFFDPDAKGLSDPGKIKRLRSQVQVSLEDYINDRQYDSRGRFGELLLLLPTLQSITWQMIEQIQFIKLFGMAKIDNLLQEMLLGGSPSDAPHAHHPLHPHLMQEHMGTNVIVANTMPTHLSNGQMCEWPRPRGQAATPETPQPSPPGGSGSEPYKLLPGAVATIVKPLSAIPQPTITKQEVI
# Ecoli growth: E. coli growth inhibition | Escherichia coli growth, OD600, 23 h; hits give low values | OD600 absorbance (concentration not given with the values) | actives 0.21% (n = 330,000) | AID 1053175;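 active = OD600 absorbance below the run mean of sample wells minus 3.6 SD, in any replicate, cut at about 0.56 in these data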;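 note: stock transfer was 300 nL into about 60 µL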
# AF4-AF9 inh: blocks AF4 peptide binding to human AF9. inhibition, % at 10 µM. AlphaScreen, biotin-AF4 peptide binding to FLAG-AF9. actives 0.47% (n = 350,000). P42568;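 active = every replicate reaching a set inhibition limit, whatever the replicate mean, cut at about 25% in these data; inconclusive = mean inhibition reaches that limit but some replicates miss it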;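 note: 0% = plate neutral control median and 100% = total signal loss; the record names both 10 and 1 µM as test concentration; the first replicate is given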
# ALR inh: blocks human ALR sulfhydryl oxidase activity. inhibition, % (no concentration beside the values). P55789. AID 485317. purified ALR, DTT oxidation, H2O2 HRP-luminol luminescence. actives 3.8% (n = 290,000);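 active = mean and each replicate at 75% or more; inconclusive = only one of the two met; inactive = neither met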;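 note: stock transfer was 7.5 nL into about 7.5 µL; 0% = neutral wells and 100% = wells with inactivated enzyme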
# Target sequence (P55789 whole entry, looked up): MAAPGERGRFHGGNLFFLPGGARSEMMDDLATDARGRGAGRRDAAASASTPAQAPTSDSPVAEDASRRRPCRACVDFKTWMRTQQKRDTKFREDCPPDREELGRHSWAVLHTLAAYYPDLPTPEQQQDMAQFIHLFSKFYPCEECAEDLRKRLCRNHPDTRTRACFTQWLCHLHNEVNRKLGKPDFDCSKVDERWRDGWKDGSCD
# FGF22 binding: binders of recombinant human FGF22 by thermal shift | actives 1.5% (n = 340,000) | Q9HCT0 | SYPRO orange fluorescence; percent of sucrose octasulfate shift, DMSO zero | calls only at 9.99 µM | AID 651658;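 active = melting point raised past a set limit in the mean and every replicate; inconclusive = no clear call; three in four hits are not shown here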
# Target sequence (Q9HCT0 whole entry, looked up): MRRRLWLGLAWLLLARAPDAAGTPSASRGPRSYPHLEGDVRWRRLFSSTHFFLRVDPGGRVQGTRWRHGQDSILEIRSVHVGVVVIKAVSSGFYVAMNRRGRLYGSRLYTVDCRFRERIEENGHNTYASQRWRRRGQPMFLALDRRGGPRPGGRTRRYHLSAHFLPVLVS
# Ecoli rRNA inh: selective bacterial rRNA inhibition in E. coli | GFP signal change (wild-type ribosome), % (concentration not given with the values) | E. coli WT GFP vs humanized-ribosome RFP mutants, fluorescence, 24 h; hits give low values; DMSO median 0, no signal -100 | actives 1.6% (n = 350,000);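 active = significant combined selectivity score with lowered wild-type GFP, culture density cut under 30%, mutant RFP and density less affected; inactive = any of these conditions unmet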; note: one replicate is shown; some compounds called inactive have numbers as strong as hits
# Vif TR-FRET: inhibitors of Vif binding to APOBEC3G peptide, primary screen, biochemical, TR-FRET, GST-Vif 1-94, biotin-A3G peptide, dose response retest (AID 1117319); TR-FRET GST-Vif / biotin-A3G peptide binding; higher % means a stronger effect; test concentration not given here; strong numbers were not always called active; actives 0.57% (n = 260,000); inhibition, %; hits with a dose series show IC50 in µM;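 active = above the screen mean plus three standard deviations and confirmed in dose response; inconclusive = results disagree or hit not tested in dose response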;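 note: Vif residues 1-94 fused to GST binding biotinylated APOBEC3G peptide 110-148; 0% = full assay without inhibitor and 100% = GST in place of GST-Vif; retest series ran down from 100 µM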
# Ecoli rRNA inh OD600: recorded beside Ecoli rRNA inh, whose call it bears; OD600 change, %; measured here: OD600 growth;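 optical density of the mix in the first replicate; 0 = DMSO median and -100 = no signal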
# Ecoli rRNA inh RFP: further read-out of Ecoli rRNA inh, marked with its call; RFP signal change, %; measured here: RFP humanized mutant strains;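 first replicate; 0 = DMSO median and -100 = no signal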
# * hit, by the source's call; i = inactive; ? = inconclusive; . = not tested or not shown; + = active, no number; & = joins results of further samples. These rows are one share of the data; rates above refer to the full screens.
no.	SMILES	Vif TR-FRET	Ecoli growth	FGF22 binding	ALR inh	Ecoli rRNA inh OD600
1	C[C@@H]1CN([C@@H](C)CO)C(=O)c2cc(NC(=O)Cc3cn(C)c4ccccc34)ccc2O[C@@H]1CN(C)S(=O)(=O)c1ccc(Cl)cc1	.	.	i	.	-6
2	COc1ccc(Cl)cc1NC(=O)CCCn1c(=O)c2cccn2c2cccnc21	.	.	i	.	12
3	COc1ccc(-c2nn3c(COc4ccccc4)nnc3s2)cc1OC	-7%	0.63	.	-1	.
4	CCOc1ccccc1N1CC(C(=O)N(CC)C2CCS(=O)(=O)C2)CC1=O (centres undefined)	.	0.65	i	-4	17
5	CC(=O)N(C)C[C@H]1Oc2ncc(C#Cc3ccccn3)cc2C(=O)N([C@H](C)CO)C[C@H]1C	.	.	i	.	7
6	CCC1(CC)Cc2ccccc2-c2nc(NCCCO)[nH]c(=O)c21	2%	0.65	i	5	-1
7	COC(=O)c1ccccc1NC(=S)NC(=O)COc1ccc(C)cc1	2%	0.66	.	2	.
8	COc1ccc(Br)c(C(=O)NCC2CCCCC2)c1	.	0.65	i	-2	-2
9	CCOc1ccc(NC(=O)Cn2nnc(C(=O)NCc3ccccc3OC)c2N)cc1	6%	0.8	.	5	.
10	Cc1ccc(NC(=O)c2cc(C)n(-c3ccccc3)c2C)cc1	?	0.68	i	8	-15
11	CCCS(=O)(=O)c1c(S(=O)(=O)CCC)c2ccc(C(C)=O)cn2c1C(=O)OC	10%	0.65	i	-10	12
12	O=C(NNC(=O)c1ccc(S(=O)(=O)N2CCCC2)cc1)c1ccc(Br)cc1	-2%	0.71	i	.	5
13	COc1ccc(C(=O)NCC(=O)OC2CCCCC2=O)cc1 (centres undefined)	16%	0.73	.	-17	.
14	CCS(=O)(=O)Nc1ccc(NC(C)=O)cc1	10%	0.73	.	-6	.
15	COc1ccc(CNC(=O)C2=CC(c3ccc(OC)cc3)=NS(=O)(=O)N2C)cc1	.	0.7	i	-6	-5

no.	Ecoli rRNA inh	HNF4A DNA FP	AF4-AF9 inh	Ecoli rRNA inh RFP
1	-1	.	-13	-2.6
2	8	3.1	5.4	14
3	.	0.8	.	.
4	9	0.1	1.1	-0.9
5	6	.	-9.1	-0.6
6	-3	0.7	-9.5	-1.6
7	.	2.9	.	.
8	-2	3.7	-9.1	1.2
9	.	1.3	.	.
10	-18	3.0	4.4	-8.4
11	3	0.1	2.3	1.5
12	2	-4.1	-4.1	4.3
13	.	2.5	.	.
14	.	-2.9	.	.
15	18	-3.3	2.7	-16

# Following part:
no.	SMILES	Vif TR-FRET	Ecoli growth	FGF22 binding	ALR inh	Ecoli rRNA inh OD600
16	CCC1(CC)Cc2ccccc2-c2nc3ccccc3c(=O)n21	30%	0.71	.	6	.
17	COCCCNC(=S)NC1CC2CCCC(C1)N2Cc1cccs1 (centres undefined)	-3%	0.67	.	-1	.
18	O=C(c1ccc(S(=O)(=O)c2ccccc2Cl)c([N+](=O)[O-])c1)N1CCCCCC1	.	0.71	.	-5	.
19	COc1ccccc1C(NC(=O)CC(C)C)c1c(O)ccc2ccccc12 (centres undefined)	.	0.73	i	-105	15
20	CC(C)(C)OC(=O)[C@H]1[C@H](c2ccc([N+](=O)[O-])cc2)C2(C(=O)c3ccccc3C2=O)C2c3ccccc3C=NN21 (some centres undefined)	.	0.7	i	-1	12
21	O=C(COC(=O)CNC(=O)c1cccc(OC(F)F)c1)NNC(=O)c1ccccc1	2%	0.67	i	9	6
22	Cc1cc(NC(=O)CCN2CCCCC2)ccc1Br	.	0.61	i	4	-11
23	C[C@H]1CN([C@@H](C)CO)C(=O)Cc2cc(NC(=O)Cn3cnnn3)ccc2O[C@@H]1CN(C)S(=O)(=O)c1ccc(Cl)cc1	.	.	i	.	-2
24	Cc1ccc(S(=O)(=O)N(C)C[C@@H]2Oc3cc(-c4cccc(F)c4)ccc3S(=O)(=O)N([C@H](C)CO)C[C@@H]2C)cc1	.	.	i	.	1
25	OCCn1c(SCCOc2ccccc2F)nc2ccccc21	-8%	0.74	.	-2	.
26	O=C1CC(NS(=O)(=O)c2cccs2)CN1c1ccc(F)cc1 (centres undefined)	5%	0.63	i	-1	4
27	COc1ccc(NC(=O)CSc2nc3sc(C)cc3c(=O)n2C)cc1	.	0.67	i	-3	-38
28	CN1c2ccc(-c3ccccc3)cc2[C@@H]2[C@@H](CCN2C(=O)c2ccccc2)[C@H]1CO	.	.	i	.	-11
29	Cc1[nH]c2ccccc2c1C(=O)C(C)OC(=O)c1ccc([N+](=O)[O-])o1 (centres undefined)	-6%	0.65	i	-18	14
30	CC(CNC(=O)CCC(=O)N1CCOc2ccc(Cl)cc21)c1ccccc1 (centres undefined)	.	0.72	i	-7	-67

no.	Ecoli rRNA inh	HNF4A DNA FP	AF4-AF9 inh	Ecoli rRNA inh RFP
16	.	-1.4	.	.
17	.	4.7	.	.
18	.	-0.1	.	.
19	10	2.4	-3.5	-4.0
20	7	-1.6	8.7	7.5
21	7	-0.3	-1.8	-0.6
22	-3	0.5	3.6	-2.1
23	1	.	1.3	1.2
24	-2	.	-3.4	-1.5
25	.	-3.0	.	.
26	1	-0.8	-1.8	-1.0
27	-26	6.8	-3.3	-8.8
28	-3	.	12	19
29	-4	1.6	8.1	8.1
30	-43	-2.0	-7.7	-4.2

# (more compounds)
no.	SMILES	Vif TR-FRET	Ecoli growth	FGF22 binding	ALR inh	Ecoli rRNA inh OD600
31	O=S(=O)(c1cccc(F)c1)N1CCN(Cc2ccc3c(c2)OCO3)CC1	-2%	0.63	.	-3	.
32	O=C(CCN1CCCCC1)N[C@@H]1CC[C@H](CC(=O)N2CCC(Cc3ccccc3)CC2)O[C@H]1CO	.	.	i	.	-8
33	Cc1ccc(S(=O)(=O)NC(C)C(c2cccs2)N2CCN(C)CC2)cc1 (centres undefined)	?	0.68	.	-6	.
34	Cc1cn([C@H]2C[C@H](O)[C@@H](CCC(=O)NCC(c3ccccc3)c3ccccc3)O2)c(=O)[nH]c1=O	.	.	i	.	-12
35	Cc1ccc(Cn2c(SCC(=O)NCC3CCCO3)nc3c(sc4ccccc43)c2=O)cc1 (centres undefined)	-5%&-5%	0.65	.	-1	.
36	Cc1ccc(C(C)C)c(OCC(=O)OCC(=O)NC2CCS(=O)(=O)C2)c1 (centres undefined)	-4%	0.7	i	-13	-1
37	C[C@H](CO)N1C[C@H](C)[C@H](CN(C)C(=O)Nc2cccc3ccccc23)Oc2c(NS(=O)(=O)c3ccc(Cl)cc3)cccc2C1=O	.	.	i	.	-3
38	Cc1cc(C)nc(NC(=O)c2c(-c3c(Cl)cccc3Cl)noc2C)n1	-9%	0.67	.	-8	.
39	Cc1cc(Nc2ccc(O)cc2)n2c(nc3ccccc32)c1C#N	-6%	0.73	i	.	8
40	COc1cc(OC)cc(-n2nnnc2SCC(=O)Nc2ccc(C(C)=O)cc2)c1	-37%	0.71	.	-1	.
41	CCc1cccc(CC)c1N(COC)C(=O)Cn1nnc2ccccc21	29%	0.73	.	-12	.
42	C=CCOc1ccc(/C(CC)=N/O)c(OC)c1	12%	.	.	4	.
43	COc1cc(NC(=O)c2ccc3c(c2)OCO3)ccc1NC(=O)c1cccs1	.	0.67	+	6	22
44	CCNC(=O)NC(=O)C(C)OC(=O)C(C)(C)Oc1ccc(Cl)cc1 (centres undefined)	-11%	0.71	i	-26	13
45	O=C(NCc1ccccc1Cl)c1cc([N+](=O)[O-])ccc1Cl	0%	.	.	-12	.

no.	Ecoli rRNA inh	HNF4A DNA FP	AF4-AF9 inh	Ecoli rRNA inh RFP
31	.	-4.3	.	.
32	0	.	3.3	11
33	.	-1.8	.	.
34	-5	-3.6	1.4	-4.1
35	.	-1.8	.	.
36	-1	-0.2	-6.5	0.2
37	1	.	0.4	-0.5
38	.	-4.5	.	.
39	2	0.8	0.8	-0.6
40	.	-0.9	.	.
41	.	-0.1	.	.
42	.	-3.0	.	.
43	9	2.0	-0.6	0.7
44	9	-0.3	-0.6	0.6
45	.	-0.9	.	.

# (more compounds)
no.	SMILES	Vif TR-FRET	Ecoli growth	FGF22 binding	ALR inh	Ecoli rRNA inh OD600
46	Cc1cccc(N2CCN(C(=O)c3cc4n(n3)C(C(F)(F)F)CC(c3ccco3)N4)CC2)c1C (centres undefined)	?	0.73	.	1	.
47	O=C(NCCc1nc2ccccc2[nH]1)c1cccc(Br)c1	?	0.7	i	.	-10
48	CS(=O)(=O)c1ccc(C(=O)OCC(=O)Nc2cccc(S(=O)(=O)N3CCCC3)c2)cc1	-5%	0.73	i	8	-1
49	O=C(NC1CCCC1)c1ccc2nc(-c3ccco3)c(-c3ccco3)nc2c1	0.3µM*	0.67	.	.	.
50	COc1ccc2c(c1OC)CCC2=O	2%	0.66	.	-6	.
51	O=C(NC(=O)c1ccccc1F)Nc1nc(-c2cccs2)cc(C(F)(F)F)n1	25%	0.79	i	4	14
52	CCOc1ccc(NC(=O)c2ccc(NC(=O)CSc3nc4ccccc4c(=O)[nH]3)cc2)cc1	-3%	0.72	i	-8	8

no.	Ecoli rRNA inh	HNF4A DNA FP	AF4-AF9 inh	Ecoli rRNA inh RFP
46	.	1.2	.	.
47	-19	-3.7	-2.8	-0.4
48	-6	3.8	3.6	0.7
49	.	-29	.	.
50	.	1.4	.	.
51	-12	-1.9	0.7	4.7
52	9	-2.3	-0.4	-0.1

# Among those listed so far, these have two or more sulfur atoms.
no.	SMILES	Vif TR-FRET	Ecoli growth	FGF22 binding	ALR inh	Ecoli rRNA inh OD600
11	CCCS(=O)(=O)c1c(S(=O)(=O)CCC)c2ccc(C(C)=O)cn2c1C(=O)OC	10%	0.65	i	-10	12
17	COCCCNC(=S)NC1CC2CCCC(C1)N2Cc1cccs1 (centres undefined)	-3%	0.67	.	-1	.
24	Cc1ccc(S(=O)(=O)N(C)C[C@@H]2Oc3cc(-c4cccc(F)c4)ccc3S(=O)(=O)N([C@H](C)CO)C[C@@H]2C)cc1	.	.	i	.	1
26	O=C1CC(NS(=O)(=O)c2cccs2)CN1c1ccc(F)cc1 (centres undefined)	5%	0.63	i	-1	4
27	COc1ccc(NC(=O)CSc2nc3sc(C)cc3c(=O)n2C)cc1	.	0.67	i	-3	-38
33	Cc1ccc(S(=O)(=O)NC(C)C(c2cccs2)N2CCN(C)CC2)cc1 (centres undefined)	?	0.68	.	-6	.
35	Cc1ccc(Cn2c(SCC(=O)NCC3CCCO3)nc3c(sc4ccccc43)c2=O)cc1 (centres undefined)	-5%&-5%	0.65	.	-1	.
48	CS(=O)(=O)c1ccc(C(=O)OCC(=O)Nc2cccc(S(=O)(=O)N3CCCC3)c2)cc1	-5%	0.73	i	8	-1

no.	Ecoli rRNA inh	HNF4A DNA FP	AF4-AF9 inh	Ecoli rRNA inh RFP
11	3	0.1	2.3	1.5
17	.	4.7	.	.
24	-2	.	-3.4	-1.5
26	1	-0.8	-1.8	-1.0
27	-26	6.8	-3.3	-8.8
33	.	-1.8	.	.
35	.	-1.8	.	.
48	-6	3.8	3.6	0.7
